Assay outcomes: PubChem, several laboratories
B2AR ag: human beta-2 adrenergic receptor agonism by FAP; Am2.2-beta2AR cells, FAP receptor internalization, flow cytometry; reference of the scale not given here; AID 504454; 340,000 compounds, 0.43% hits; response, % (test concentration not listed); P07550;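 active = response above a set limit, near 3 SD of response in nonfluorescent compounds, cut at about 42% in these data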;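 also: stock transfer was 100 nL into about 11 µL; a reference agonist was the positive control; negative values mostly stem from fluorescent compounds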
ALR H2O2 inh: inhibitors of human sulfhydryl oxidase ALR; P55789; purified ALR, DTT oxidation, H2O2 HRP-luminol luminescence; inhibition, % (no concentration beside the values); 290,000 compounds, 3.8% hits; AID 485317;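 active = mean and each replicate at 75% or more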;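 also: stock transfer was 7.5 nL into about 7.5 µL; 0% = neutral wells and 100% = wells with inactivated enzyme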
Target sequence (P55789 whole entry, looked up): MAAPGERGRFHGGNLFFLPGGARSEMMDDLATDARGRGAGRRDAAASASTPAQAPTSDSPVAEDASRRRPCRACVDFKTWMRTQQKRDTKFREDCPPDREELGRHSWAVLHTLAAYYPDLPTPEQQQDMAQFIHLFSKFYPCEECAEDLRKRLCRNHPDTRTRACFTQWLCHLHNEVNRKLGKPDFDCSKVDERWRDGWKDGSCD
UCH37 DUB inh: inhibitors of human deubiquitinating enzyme UCH37; Q9Y5K5; purified proteasome/UCH37, Ub-AMC cleavage fluorescence; inhibition, % (concentration not given with the values); 330,000 compounds, 0.33% hits; AID 588478;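 active = mean of two replicates above 20%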;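 also: 0% = compound-free wells with enzyme and 100% = wells lacking proteasome; stock transfer was 100 nL into about 20 µL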
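Material: Human UCH37 enzyme supplied as purified proteasome complex | Schedule: 30 min compound-proteasome preincubation then 25 min substrate reaction, room temperature | Detection: AMC fluorescence from Ub-AMC cleavage, excitation 355 nm, emission 460 nm | Benchmarks: Wells without proteasome as full block, compound-free enzyme plus substrate as uninhibited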
rRNA inh HTS: inhibits bacterial ribosomal RNA function over humanized ribosomes | E. coli WT GFP vs humanized-ribosome RFP mutants, fluorescence, 24 h; stronger effect = lower value; DMSO median 0, no signal -100 | GFP signal change (wild-type ribosome), % (no concentration beside the values) | 350,000 compounds, 1.6% hits;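 active = significant combined selectivity score with lowered wild-type GFP, culture density cut under 30%, mutant RFP and density less affected; inactive = any of these conditions unmet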; also: one replicate is shown; some compounds called inactive have numbers as strong as hits
HNF4A DNA FP: change in binding of human HNF4 alpha to DNA; HNF4a-FITC DNA binding, fluorescence polarization, 1 h; activity change, % at 10 µM; 360,000 compounds, 0.3% hits; AID 1224865; in the data active = activity change above about 30%, passing the limit was not always enough;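 also: controls were the assay level and a saturating level of protein; the project sought stronger binding though the title names inhibitors; some compounds called inactive have numbers as strong as hits; positive values seem to mean higher polarization but the record does not say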
Target sequence (P41235 whole entry, looked up): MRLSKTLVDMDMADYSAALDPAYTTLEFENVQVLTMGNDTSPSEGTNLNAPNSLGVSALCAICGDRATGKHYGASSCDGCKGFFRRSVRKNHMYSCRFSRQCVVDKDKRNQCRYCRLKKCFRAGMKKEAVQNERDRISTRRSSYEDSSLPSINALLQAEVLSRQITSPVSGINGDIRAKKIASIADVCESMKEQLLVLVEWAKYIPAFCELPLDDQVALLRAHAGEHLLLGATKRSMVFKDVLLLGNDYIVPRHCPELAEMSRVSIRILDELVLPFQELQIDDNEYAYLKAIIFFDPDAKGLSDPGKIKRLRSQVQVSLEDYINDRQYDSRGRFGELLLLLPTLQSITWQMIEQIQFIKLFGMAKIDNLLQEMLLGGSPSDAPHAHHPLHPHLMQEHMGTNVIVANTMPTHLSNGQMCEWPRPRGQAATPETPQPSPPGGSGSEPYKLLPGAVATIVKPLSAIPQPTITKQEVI
E coli growth: inhibitors of Escherichia coli growth; OD600, 23 h; stronger effect = lower value; OD600 absorbance (concentration not given with the values); 330,000 compounds, 0.21% hits; AID 1053175;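 active = OD600 absorbance below the run mean of sample wells minus 3.6 SD, in any replicate, cut at about 0.56 in these data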;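 also: stock transfer was 300 nL into about 60 µL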
FGF22 binding: shifts melting point of recombinant human FGF22; recombinant FGF22 thermal shift, SYPRO orange fluorescence; percent of sucrose octasulfate shift, DMSO zero; calls only at 9.99 µM; 340,000 compounds, 1.5% hits;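 active = melting point raised past a set limit in the mean and every replicate; three in four hits are not shown here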
Target sequence (Q9HCT0 whole entry, looked up): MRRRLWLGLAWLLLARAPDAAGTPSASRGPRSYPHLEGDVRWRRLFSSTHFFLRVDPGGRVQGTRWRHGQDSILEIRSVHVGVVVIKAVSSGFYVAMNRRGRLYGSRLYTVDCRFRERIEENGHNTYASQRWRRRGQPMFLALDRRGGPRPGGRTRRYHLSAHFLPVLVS
rRNA inh HTS OD600: further read-out of rRNA inh HTS, marked with its call; OD600 change, %; measured here: OD600 growth;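 optical density of the mix in the first replicate; 0 = DMSO median and -100 = no signal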
rRNA inh HTS RFP: further read-out of rRNA inh HTS, marked with its call; RFP signal change, %; measured here: RFP humanized mutant strains;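 first replicate; 0 = DMSO median and -100 = no signal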
Active calls of the source: *; i = inactive; / = not tested or not shown; & = joins results of further samples. Only part of the results is shown (hit frequency here may not be typical).

SMILES	B2AR ag	ALR H2O2 inh	UCH37 DUB inh	rRNA inh HTS	rRNA inh HTS OD600	rRNA inh HTS RFP	HNF4A DNA FP	E coli growth	FGF22 binding
Cc1ccc(N(C(=O)CCC(=O)Nc2ccccn2)C(C(=O)NC(C)C)c2ccc(F)cc2)cc1 (stereo not drawn)	-1	/	2.6	2	9	-0.1	0.1	0.62	i
COc1ccccc1C(=O)Nc1ccc(C2=NNC(=O)CC2C)cc1 (stereo not drawn)	-6	3	1.3	/	/	/	-0.9	0.66	/
CCOC(=O)C[C@H]1c2cc(F)ccc2S(=O)(=O)N1C1CCCCC1	1	44	-0.9	2	4	0.8	0.6	/	i
CCc1ccc(Nc2n[n+](-c3ccccc3)c(-c3cc(OC)c(OC)cc3Br)s2)cc1	-3	18	-0.2	8	12	-11	1.0	0.62	i
Cc1ccc(CNC(=O)Cn2nnc(C(=O)Nc3cc(C)ccc3C)c2N)cc1	-3	3	3.0	2	18	-4.0	2.2	0.65	i
Cc1ccc(C(=O)N2CCCC(N3CCN(c4ccccc4C)CC3)C2)c(=O)[nH]1 (stereo not drawn)	-2	50	2.1	26	18	10.0	-3.6	0.71	i
CCN1CCN(c2cc(N3CCc4ccccc4C3)c(F)cc2[N+](=O)[O-])CC1	-1	3	5.9	/	/	/	0.5	0.67	/
CCN(Cc1ccccc1)S(=O)(=O)c1c[nH]c(C(=O)OC)c1	-6	-4	4.8	-11	-12	-0.4	1.9	0.76	i
CC1CN(S(=O)(=O)c2cccc(C(=O)Nc3ccc(S(=O)(=O)Nc4ncccn4)cc3)c2)CC(C)O1 (stereo not drawn)	3	/	5.8	15	12	-6.1	1.1	0.67	i
CC1=CC=CN2C1=NC(=O)CC2(C)C(=O)N(CC(=O)NC1CCCC1)Cc1ccccc1 (stereo not drawn)	3	1	i	10	12	-1.1	-2.7	0.67	i
COc1ccc(NC2=NCC(=O)N2c2ccccc2F)cc1	0	-10	0.7	/	/	/	0.7	0.74	/
CCCC(c1nnnn1C1CCCCC1)N1CCN(C(=O)c2ccco2)CC1 (stereo not drawn)	-8	/	-3.0	4	0	-2.0	-2.5	0.66	i
CC(=O)N(C(C)=O)c1ccc2nc(C)[nH]c(=O)c2c1	-1	0	1.9	/	/	/	5.2	0.71	/
COc1ccc2[nH]c3c(c2c1)CCN1C(=O)N([C@@H](C)C(=O)NCc2ccccc2)C(=O)[C@]31C	-1	4	-2.1	/	/	/	5.0	0.7	i
CC(C)(C)NC(=O)N1CCN(c2nc3ccc(Cl)cc3s2)CC1	1	/	4.7	-1	1	0.9	1.8	0.68	i
Cc1ccc2c(c1)N(C(=O)CCC(=O)NCc1cccnc1)CC(C)O2 (stereo not drawn)	6	-6	5.4	2	7	-4.0	1.7	0.76	i
CC(O)(c1cccc(F)c1)c1nc(/C=C/c2ccccc2)cs1 (stereo not drawn)	/	/	/	-53	-75	-16	3.3	/	i
Cc1ccc(C2=NOC3(CC(=O)N(c4ccccc4)C3=O)C2)cc1 (stereo not drawn)	2	-3	1.6	5	1	-2.5	-1.1	0.62	i
O=S(=O)(c1cccc(C(F)(F)F)c1)N1c2ccccc2-n2cccc2C1c1cccnc1 (stereo not drawn)	/	/	/	-5	-53	13	1.0	/	i
CC(=O)c1ccc(NC(=O)CC(C)S(=O)(=O)c2ccc3c(c2)CCN3C(C)=O)cc1 (stereo not drawn)	-1	-11	3.7	10	3	10	2.5	0.69	i
CC(C)Cc1ccc(C(C)C(=O)Nc2cccnc2)cc1 (stereo not drawn)	-1	-31	6.5	-5	-8	-5.0	3.6	0.7	/
O=C(CSc1nnnn1-c1cccc2c1CCCC2)N1CCCC1	4	-14	4.1	/	/	/	1.7	0.68	/
COc1ccc(C(=N/O)/C(=N/O)c2ccc(OC)cc2)cc1	-4	-2	/	-3	-3	-5.4	-0.3	/	i
Cc1cc(F)ccc1-c1cc(C(=O)NCC2CCCCC2)[nH]n1	/	/	/	-36*	-7.0*	-11*	-4.2	/	i

Part of the list above, with the structure last.
B2AR ag | ALR H2O2 inh | UCH37 DUB inh | rRNA inh HTS | rRNA inh HTS OD600 | rRNA inh HTS RFP | HNF4A DNA FP | E coli growth | FGF22 binding | SMILES
-1 | -11 | 3.7 | 10 | 3 | 10 | 2.5 | 0.69 | i | CC(=O)c1ccc(NC(=O)CC(C)S(=O)(=O)c2ccc3c(c2)CCN3C(C)=O)cc1 (stereo not drawn)
1 | 44 | -0.9 | 2 | 4 | 0.8 | 0.6 | / | i | CCOC(=O)C[C@H]1c2cc(F)ccc2S(=O)(=O)N1C1CCCCC1

Some of these compounds in order of their number in rRNA inh HTS, largest number first:
compound | rRNA inh HTS
Cc1ccc(CNC(=O)Cn2nnc(C(=O)Nc3cc(C)ccc3C)c2N)cc1 | 2
CC(C)(C)NC(=O)N1CCN(c2nc3ccc(Cl)cc3s2)CC1 | -1
Cc1cc(F)ccc1-c1cc(C(=O)NCC2CCCCC2)[nH]n1 | -36*

(listing goes on)
SMILES	B2AR ag	ALR H2O2 inh	UCH37 DUB inh	rRNA inh HTS	rRNA inh HTS OD600	rRNA inh HTS RFP	HNF4A DNA FP	E coli growth	FGF22 binding
CNS(=O)(=O)Cc1ccc2[nH]cc(CCN(C)C)c2c1	6&3	-7&6	-0.2&3.9	-1	-7	0.5	0.0&-0.3	0.73&0.63	i
COc1ccc(CCNC(=O)C(=O)N2CCCC2)cc1OC	-2	-5	2.7	3	6	-1.3	-3.0	0.71	i
O=C(N/N=C/c1cccc([N+](=O)[O-])c1)C1COc2ccccc2O1 (stereo not drawn)	6	5	/	5	4	-2.2	2.1	/	i
COc1ccc2oc3cc(NCCN(C)C)ccc3c(=O)c2c1	/	/	/	12	13	-3.2	-0.2	/	i
CC(C)c1ccc(OCC(=O)N2CCN(c3ccccn3)CC2)c(Br)c1	-14	-25	1.8	2	-5	2.8	3.2	0.7	i
COC(=O)[C@@]12CCCN1[C@H](c1ccc(-c3ccccc3)c(OC)c1)[C@H]1C(=O)N(C)C(=O)[C@H]12	4	-1	2.5	6	5	2.4	5.8	/	i
CC(C)(C)NC(=O)N1CCn2cccc2C1c1ccccc1F (stereo not drawn)	4	19	2.3	7	7	1.5	-3.4	0.68	i
COc1ccc(NC(=O)C(=O)NCC(c2ccco2)N2CCc3ccccc32)cc1 (stereo not drawn)	-5	-5	3.1	/	/	/	-0.1	0.74	/
Nc1nnc(SCC(=O)NC23CC4CC(CC(C4)C2)C3)s1	6	-3	2.9	/	/	/	-0.4	0.71	/
CN1CCN(C(=O)c2ccccc2NC(=O)CCN2C(=O)c3ccccc3C2=O)CC1	7	-1	-1.7	/	/	/	1.9	0.7	/
O=S(=O)(NCC1CCCO1)c1cccc(S(=O)(=O)N2CCCC2)c1 (stereo not drawn)	-4	/	7.5	/	/	/	0.0	0.78	/
CCc1ccc(NC(=O)C2CCN(S(=O)(=O)c3ccc4c(c3)CC(C)N4C(C)=O)CC2)cc1 (stereo not drawn)	1	/	1.9	4	12	3.8	0.6	0.77	i
CCCn1c(-c2ccccc2)cc(SC)c(C#N)c1=O	2	-11	-2.8	12	7	1.0	-2.9	0.67	i
CN1CCN(c2nc(-c3cccc([N+](=O)[O-])c3)nc3ccccc23)CC1	2	-4	6.2	-14	3	-3.1	-2.5	0.68	i
CNc1cnc(-c2ccc(O)c(OC)c2)cn1	/	/	/	5	5	-1.5	-3.9	/	i
Cc1cc(C)n(S(=O)(=O)c2ccc(F)cc2)n1	-7	-12	2.7	6	1	-3.0	0.8	0.69	i
CCCNC(=O)c1cccc(Cn2cc(Br)c([N+](=O)[O-])n2)c1	-6	-3	3.7	/	/	/	0.1	0.68	/
Cc1ccc(/C=N/NC(=O)c2ccc(-n3cnnn3)cc2)cc1	-5	/	/	10	14	1.1	2.5	/	i
CCCOc1ccc(F)cc1-c1cc(C(=O)Nc2cc(OC)c(OC)c(OC)c2)[nH]n1	/	/	/	-14	-24	-3.5	-3.6	/	i
CC1CCC(NC(=O)COc2ccccc2C(N)=O)CC1 (stereo not drawn)	-4	1	-0.7	/	/	/	4.6	0.64	/
O=C(NCCOCc1ccc(Cl)cc1)c1ncn[nH]1	15	1	0.9	/	/	/	1.1	0.7	/
COc1ccc(-n2ncc3c(NCc4ccco4)ncnc32)cc1	-4	13	3.6	/	/	/	15	0.69	/
COc1ccc(NC(=S)N2CCC(NC(=O)c3ccc(F)cc3)CC2)cc1	-1	2	3.2	2	3	-0.3	-1.9	0.67	i
CCOc1ccc(C(=O)NC(=S)Nc2ccc(NC(=O)c3ccco3)c(C)c2)cc1[N+](=O)[O-]	-1	-6	2.0	/	/	/	-0.1	0.68	/
NC(=O)c1c(-c2ccc(Cl)cc2Cl)csc1NC(=O)Cc1ccccc1	-2	-3	-3.2	/	/	/	3.5	0.71	/
CCOc1ccc(-c2cccc(NC(=O)c3ccc(Br)o3)c2)nn1	1	/	3.1	-8	-23	-0.2	3.8	0.65	i
CC(C)(C)NC(=S)N1CCC2CC1c1cc(-c3ccc4c(c3)OCO4)ccc12 (stereo not drawn)	/	/	/	7	8	-2.7	6.4	/	i
O=C(Nc1nnc(CCc2ccccc2)s1)c1cccc(F)c1	2	-3	3.6	0	3	-2.8	-1.2	0.69	i
COc1cc(CCCN2C(=S)NC[C@@H]2Cc2ccccc2)cc(OC)c1OC	-5	-7	0.2	-13	-22	1.0	-1.5	/	i
CS(=O)(=O)Nc1ccccc1C(=O)NCc1ccco1	-1	-1	-27	/	/	/	2.4	0.75	/
O=C(O)C1C2CCC(C2)C1C(=O)NCCc1cccc(Cl)c1 (stereo not drawn)	-3	-18	3.2	5	2	1.9	0.5	0.65	i
Cc1c(C(=O)O)cnc2cc(-c3ccc(Cl)cc3)nn12	0	18	-32	-2	-4	-2.9	3.0	0.71	i
CC1CCCC(C)N1C(=O)COc1ccc(-c2nnco2)cc1 (stereo not drawn)	-1	-3	2.3	/	/	/	-1.7	0.72	/
CN(NC(=O)NN(C)C(=O)c1ccccc1)C(=O)c1ccccc1	-4	/	/	6	8	-0.6	-1.1	/	i
O=C(CNC(=O)C1CCCCC1)OCn1nnc2ccccc2c1=O	-4	14	4.2	12	4	0.1	1.9	0.69	i
Cc1ccc(Cl)cc1NC(=O)c1cc2ccccc2cc1O	44*	/	/	-54	-81	-31	-4.4	/	i
Cc1ccc(Cl)cc1N1CCN(C(=O)c2cc3c(=O)[nH]c4ccccc4c3n2C)CC1	-10	2	0.7	/	/	/	1.7	0.75	/
COCCCn1c(SCC(=O)NC2CCCC2)nnc1-c1ccccc1	3	-7	3.1	10	6	-0.7	0.1	0.66	i
O=C(NC(=S)N1CCCCCC1)C1CC1	-10	-1	1.8	12	3	-0.8	2.7	0.65	i
COc1ccc(CCNC(=O)c2sc3ccccc3c2Cl)cc1OC	-16	/	0.0	-5	3	-3.6	2.6	0.68	i
COc1ccc(Cl)cc1NC(=O)C1CC(=O)N(c2ccc(F)cc2)C1 (stereo not drawn)	1	13	3.4	/	/	/	0.0	0.67	/

Copied from the list.
ALR H2O2 inh result of COCCCn1c(SCC(=O)NC2CCCC2)nnc1-c1ccccc1 : -7
ALR H2O2 inh result of O=C(NC(=S)N1CCCCCC1)C1CC1 : -1
HNF4A DNA FP result of Cc1ccc(Cl)cc1N1CCN(C(=O)c2cc3c(=O)[nH]c4ccccc4c3n2C)CC1 : 1.7
B2AR ag result of COc1ccc(CCNC(=O)c2sc3ccccc3c2Cl)cc1OC : -16
UCH37 DUB inh result of COc1ccc(Cl)cc1NC(=O)C1CC(=O)N(c2ccc(F)cc2)C1 (stereo not drawn) : 3.4
